Sfp inh = Sfp phosphopantetheinyl transferase inhibition. Q9F4F7. Potency, µM, for inactives: max response, negative = inhibition, usual class: inhibitors. Biochemical Sfp PPTase activity, qHTS. hit rate 3.5% among 310,000. AID 1490; active = well fitted inhibition curve with a large enough effect; inconclusive = small, poorly fitted or top-dose-only effect, or another doubt; inactive = no such curve, though single readings can be large or run the other way;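 note: the enzyme is Sfp with the accession as filed and its product quenches rhodamine fluorescence; potency is the fitted concentration of half-maximal effect; 0% = enzyme reaction without inhibitor and -100% = no enzyme wells; top concentration of the series not given in the record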
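After 15 min at room temperature with compound, 15 nM Sfp received 5 uM rhodamine-CoA plus 12.5 uM BHQ-2-ybbR (50 mM Hepes pH 7.6, 10 mM MgCl2). Rate came from the fluorescence difference over 30 min, ex 525/em 598 nm.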
PINK1 expr mod = changes PINK1 expression; hit rate 0.2% among 410,000; Potency, µM (titrated, usually from 76.6 µM), for inactives: at the top dose activation (PINK1 increase), most hits filed as activators; PINK1 immunofluorescence, high-content cytometry, 24 h; active = well fitted activation curve with a large enough effect; inconclusive = small, poorly fitted or top-dose-only effect; inactive = flat fitted curve, though single readings scatter; cell line not stated here;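 note: potency is the fitted concentration of half-maximal effect; % of control where 0% means no effect; nearly all actives have a fitted effect of over 65% in size; a mitochondrial uncoupler was the plate control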
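Cells are seeded, rested 12 hours, then given compound at five concentrations or DMSO for 24 hours. After fixation, blocking and antibody staining, PINK1 amount and mitochondrial localization are scored; CCCP serves as control.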
Menin MLL FP FL = menin-MLL binding inhibition, fluorescein peptide | Fluorescence polarization, fluorescein-MLL peptide displacement from menin | FP activity change, % at 61.4 µM | 290,000 tested, under 10 active | AID 1766; inconclusive = falling polarisation curve, or a change in total fluorescence; inactive = total fluorescence flat and polarisation flat or rising; no compound was filed as active; the % refers to the polarisation; negative = inhibition;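 note: % of control where 0% means no effect; inhibitors lower the polarisation; unlabelled MLL peptide was the positive control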
TRPML1 agonist = human mucolipin-1 channel agonism; Q9GZU1; TRPML1-expressing cells, Ca2+ dye fluorescence, FDSS; host cell line not named in the record; reference of the full effect not given here; activation, % (concentration not given with the values); hit rate 0.12% among 410,000; in the data active = activation above about 50%; inconclusive = about 30% to 50%; inactive = below about 30%; note: 0% is about no effect; the text of the record puts the active cut at 80%
Target sequence (Q9GZU1 whole entry, looked up): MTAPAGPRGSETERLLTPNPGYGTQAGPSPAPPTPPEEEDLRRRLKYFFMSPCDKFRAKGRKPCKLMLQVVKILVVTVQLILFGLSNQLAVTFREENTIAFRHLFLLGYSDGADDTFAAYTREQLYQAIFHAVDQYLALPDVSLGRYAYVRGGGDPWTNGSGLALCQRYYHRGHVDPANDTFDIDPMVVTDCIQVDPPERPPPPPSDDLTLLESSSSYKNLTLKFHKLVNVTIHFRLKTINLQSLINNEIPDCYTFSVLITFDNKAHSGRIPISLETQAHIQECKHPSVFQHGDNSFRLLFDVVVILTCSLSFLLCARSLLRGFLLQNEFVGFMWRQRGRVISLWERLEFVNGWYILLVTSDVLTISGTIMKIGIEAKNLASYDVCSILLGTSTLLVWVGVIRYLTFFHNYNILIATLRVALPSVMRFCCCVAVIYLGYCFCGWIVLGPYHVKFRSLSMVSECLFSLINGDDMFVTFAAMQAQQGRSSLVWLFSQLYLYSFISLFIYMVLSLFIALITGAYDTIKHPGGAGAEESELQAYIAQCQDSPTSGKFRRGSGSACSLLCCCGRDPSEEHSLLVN
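TRPML1-DL cells, Tet-induced overnight (~16 h, 37 degrees C), loaded 45-90 min at room temperature with Ca8 no-wash calcium dye plus quencher. FDSS fluorescence: 10 s baseline, compound pin-transfer, 110 s agonist read, then EC80 54-4 (4uM final) and 110 s antagonist read.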
ClpP mod = qHTS Assay for Activators of ClpP; Potency, µM (titrated, usually from 57.5 µM), without a hit: at the highest dose activity change, negative = active; hit rate 1.9% among 340,000; purified B. subtilis ClpP, FRET peptide cleavage, 20 min; ATP-dependent Clp protease proteolytic subunit (Bacillus subtilis (strain 168)), P80244; active = well fitted falling curve with a large enough effect; inconclusive = small, poorly fitted or top-dose-only effect; inactive = no such curve, though single readings can be large or run the other way; note: potency is the fitted concentration of half-maximal effect; the source files actives as falling curves though it sought activators and does not explain the sign; nearly all actives have a fitted effect of over 65% in size; many hits overshoot -100%
Target sequence (P80244 whole entry, looked up): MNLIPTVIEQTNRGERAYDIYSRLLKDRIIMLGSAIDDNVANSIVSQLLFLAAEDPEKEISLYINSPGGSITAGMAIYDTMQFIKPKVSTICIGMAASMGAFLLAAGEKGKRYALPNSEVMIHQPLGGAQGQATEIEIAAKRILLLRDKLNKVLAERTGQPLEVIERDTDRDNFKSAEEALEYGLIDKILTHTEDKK
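ClpP 10 microg/mL final, pH 8 Tris/KCl buffer with BSA, glycerol, Tween-20; compound pinned in; FRET-FV substrate; RT 20 min; Ex320/Em430; ΔFRET vs ADEP 5.8 microM, DMSO, no enzyme.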
TRPV1 PAM = human TRPV1 potentiation | potentiation, % at 8.33 µM | hit rate 0.02% among 320,000 | Q8NER1 | TRPV1-expressing cells, Fluo-8 calcium influx, capsaicin EC20 potentiation; host cell line not named in the record; control for the full effect not named in the record; active means potentiation above 80%; inconclusive means 30% to 80%; inactive means below 30%; note: 0% is about no effect
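TRPV1-expressing cells were cultured overnight at 35.5C and loaded with Fluo-8 calcium dye for 40 to 90 min at room temperature. After a 10 s baseline, compound was added and calcium influx was read kinetically for 3 min (ex 480/em 520 nm).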
TRPML1 inh = blocks the human TRPML1 channel. Q9GZU1. TRPML1-inducible cells, Ca2+ dye fluorescence, FDSS; hits give low values; inhibition of EC80 agonist-evoked calcium signal. activity change, negative = inhibition, % (test concentration not listed). hit rate 0.02% among 390,000; in the data active means activity change below about -50%; inconclusive means about -30% to -50%; inactive means above about -30%;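 note: stimulus is agonist 54-4 at its EC80 concentration; % is set by controls: 0 for no effect and ±100 for the full control effect; compound concentration not given in the record; the text of the record puts the active cut at -80%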
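Calcium fluorescence in TRPML1-DL cells induced overnight with Tet: a 110 s read after compound pin addition, then a 110 s antagonist read after challenge with 54-4 at 4 uM final (EC80).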
* = called active by the depositor; u = inconclusive; x = not tested or not shown; & = joins results of further samples; [ ] = another dose, or the depositor's remark.

structure,Sfp inh,PINK1 expr mod,Menin MLL FP FL,TRPML1 agonist,ClpP mod,TRPV1 PAM,TRPML1 inh
CCC1(C)Cc2ccccc2-c2c1c(=O)n(-c1ccc(C)cc1)c1nnnn21 (configuration not stated),-1.4%,2.3%,3.9,-0.3,-5.1%,-1.4,17.0
CCOC(=O)c1cc2sccc2n1CC(=O)Nc1ccc(OC)cc1OC,9.8%,x,4.5,0.9,-0.5%,10.3,-5.1
CCOC(=O)C1(Cc2ccccc2Cl)CCN(C(=O)c2cc(C)on2)CC1,-5.0%,2.1%,-0.7,2.2,-3.5%,-25.1,15.8
O=C(c1ccc(C(F)(F)F)cc1)N1CCC(=O)N(C(COCc2ccc(C(F)(F)F)cc2)Cc2ccccc2)CC1 (configuration not stated),4.5%,1.0%,0.0,0.2,2.9%,-15.6,10.9
COc1ccc(OCCC(=O)OCC(=O)NC2CCCCC2)cc1,x,-1.1%,x,-0.6,0.9%,x,5.0
O=C(NNC(=O)c1csc(N2CCOCC2)n1)c1ccc(=O)[nH]c1,x,-1.3%,x,0.4,-5.4%,0.1,10.4
CC(C)(C)OC(=O)NCCCC[C@H](NC(=O)c1nc[nH]c1C(=O)NCC(=O)OCc1ccccc1)C(=O)OC(C)(C)C,21.4%,1.8%,-0.3,2.3,-0.8%,u,44.5
CCc1ccnc(NC(=O)NS(=O)(=O)c2ccc(C)cc2)c1,-6.3%,-0.9%,2.3,-0.3,-26.3%,u,1.7
O=C1CC(=O)Nc2cc(S(=O)(=O)N3CCN(c4ccc([N+](=O)[O-])cc4)CC3)ccc2N1,5.4%,-0.5%,4.5,3.8,1.5%,3.4,31.2
CC(NC(=O)CN(C)CC(=O)Nc1ccccc1Br)c1ccccc1 (configuration not stated),x,0.3%,x,-0.7,-0.7%,-8.8,-4.4
CC1(C(=O)NS(=O)(=O)c2ccc(C#N)cc2)CCN1C(=O)Cc1ccc(-c2ccccc2)cc1 (configuration not stated),x,0.7%,x,-0.6,-0.1%,x,x
N#Cc1c(N)oc(-c2cccs2)c1-c1cccs1,-8.9%,-0.4%,9.7,-0.3,-2.0%,1.2,-8.9
Cn1cncc1C#Cc1ccc(N2C(c3ccsc3)=Cc3ccc(F)cc3C2c2c[nH]c3ccccc23)cc1 (configuration not stated),x,2.1%,x,-0.3,64.1%,x,x
CSc1nnc(N2C(=O)C(O)=C(C(=O)c3ccco3)C2c2ccc(F)cc2)s1 (configuration not stated),35.5µM*,2.4%,x,-0.4,-3.3%,-11.1,-9.7
CCCOc1cccc(C2c3c(oc4ccc(F)cc4c3=O)C(=O)N2c2nc(C)c(C(C)=O)s2)c1 (configuration not stated),x,-1.6%,x,0.9,-5.2%,x,0.1
O=C(NCCCCCCCN1CCCCCCC1)C(C1CCCCC1)C1CCCCC1,x,u,x,0.4,-2.6%,x,-1.9
CN1CCN(c2nc(-c3cccs3)nc3ccccc23)CC1,-6.3%,-1.5%,6.2,0.7,-0.4%,-12.9,-1.8
O=C(CN1CCN(c2cccc(Cl)c2)CC1)Nc1nccs1,6.0%,3.2%,0.2,0.9,-1.9%,-9.7,11.0
C/C(=N\NC(=O)Cc1cccn1C)c1cccs1,-3.5%,-1.1%,4.9,-0.1,0.5%,2.1,-16.6
O=C(OCC(=O)N1CCc2ccccc2C1)c1cccc([N+](=O)[O-])c1,9.1%,0.0%,5.5,0.8,-0.7%,0.0,-13.5
O=C(OCC(=O)N1CCN(c2ccccc2)CC1)c1cc(Br)ccc1Cl,x,-0.8%,x,0.2,-1.1%,-42.9,11.9
COCCNC(=O)C(=O)c1cc(C)n(-c2ccc([N+](=O)[O-])cc2)c1C,15.0%,15.6%[38.3 µM],-0.2,-0.4,-0.2%,7.6,2.1
Cc1ccc(S(=O)(=O)N2[C@@H](c3ccccc3F)C(C(=O)O)=CC[C@H]2c2ccc3c(c2)OCO3)cc1,x,-1.1%,x,2.9,-2.0%,u,3.6
O=C(O)[C@@H]1CCCN1C(=O)CCc1c[nH]c2ccccc12,10.1%,0.7%,-2.5,0.5,-7.5%,-2.4,52.2
C=CCn1c(-c2ccc([N+](=O)[O-])cc2)n[nH]c1=S,-9.8%,-0.8%,3.5,0.4,-6.2%,-0.7,-7.9
Cc1c(C(=O)NC2CC(=O)N(c3ccc4c(c3)OCCO4)C2)cccc1[N+](=O)[O-] (configuration not stated),x,0.2%,x,-0.7,x,2.4,5.4
Cc1cc(C)cc(C(=O)NCC(=O)OCC(=O)Nc2cccnc2Cl)c1,19.6%,1.6%,0.9,0.1,x,-0.9,-13.1
CC(=O)c1ccc(C(=O)N(CCCN(C)C)c2nc3c(C)c(C)ccc3s2)cc1,x,5.4%,x,0.4,0.4%,x,-15.0
O=C(CCCn1c(=O)c2cccn2c2ccccc21)NCCc1ccc(Cl)cc1,x,0.5%,x,3.4,-2.7%,x,-17.7
O=C(c1cccs1)N1CCN(c2cccc(Cl)c2)CC1,-3.9%,1.5%,6.2,1.5,1.0%,-5.2,21.2
COC(=O)c1sccc1NC(=O)c1cccnc1,-2.4%,-1.9%,5.0,-0.8,-2.7%,-17.0,-11.4
CC(NC(=O)CCNS(=O)(=O)c1cccc2nonc12)c1ccccc1 (configuration not stated),14.4%,0.8%,1.3,-0.4,x,0.6,3.6
Cc1cc(NS(=O)(=O)c2ccc(-c3ccccc3)cc2)no1,-4.2%,-1.6%,-1.2,0.4,2.7%,13.9,-1.2
O=C(NC1=NCCS1)C1CCCCC1,11.5%,0.4%,0.0,-0.8,-3.6%,-7.0,-9.0
Cc1ccc(C(=O)Nc2cccc(O)c2)cc1S(=O)(=O)N1CCCCCC1,4.8%,0.7%&10.7%,3.2,-0.1&0.4,31.0%,-10.5,-2.1&0.8
CN(C)c1nn(C(=O)Nc2cccc(C(F)(F)F)c2)cc1-c1ccccc1,17.8%,9.9%[38.3 µM],-0.2,-0.4,-21.0%,21.1,3.3
O=C(Nc1ccc2oc(-c3cccc4ccccc34)nc2c1)c1ncn[nH]1,-6.6%,27.9%,2.5,0.0,31.6µM*,4.4,-3.4
Cc1sc(-c2ccncc2)nc1OC(=O)c1cc(Cl)cc(Cl)c1,-17.3%,-1.8%,u,1.8,-3.0%,0.7,-1.4
COc1ccc(N2C(=O)c3ccccc3NC23CCCC3)cc1,11.2%,2.5%,-3.3,-0.1,x,-4.1,-3.5
CC(=O)c1ccc(NC(=O)/C(=C\c2ccc(F)cc2)NC(=O)c2ccco2)cc1,11.9%,3.2%,3.5,-0.4,x,-11.4,19.7
Nc1cc(-c2ccc(OC(F)(F)F)cc2)nn1-c1ccc(Cl)c(Cl)c1,23.7%,-0.5%,1.9,-0.1,0.2%,-10.1,32.7
COc1cc(-c2nc(-c3ccc(Br)o3)no2)cc(OC)c1OC,-7.3%,2.1%,2.0,-0.2,-16.6%,x,-0.9
CN(C)CCCN(C(=O)COc1ccccc1)c1nc2c(Cl)cccc2s1,-1.2%,4.0%,-2.0,x,-0.5%,9.4,x
COc1ccc(COc2cc(-c3cccc(OC)c3)nc3ccc(NC(=O)C(C)C)cc23)cc1,-11.4%,5.7%,1.9,0.4,4.5%,-7.0,-8.4
Cc1ccccc1NC(=O)c1cccc2nc3ccccc3nc12,-25.0%,10.6%,-1.0,0.0,-0.9%,-0.9,9.9
CC(C)(C)c1cc(N2CCOCC2)n2ncc(-c3ccccc3)c2n1,-12.4%,7.9%,2.2,x,5.8%,-2.6,x
COCc1cc(=O)n2[nH]c(C)c(-c3ccccc3)c2n1,3.8%,-1.0%,1.7,-0.3,-0.2%,5.8,-6.2
CCOC(=O)C1CCN(C2=NC(=O)/C(=C/c3ccc(O)cc3)S2)CC1,u,6.0%,25.6,1.0,x,13.0,8.7
CC(=O)Nc1ccc(S(=O)(=O)NC2CC(=O)N(c3ccc4c(c3)OCCO4)C2)cc1 (configuration not stated),x,1.7%,x,0.1,x,-6.3,3.9
Cc1cccc(C(=O)O/N=C2\CCSc3ccc(C)cc32)c1,-12.9%,-0.8%,0.7,2.3,u,x,6.6
CN(C(=O)c1ccc(NC(=O)Cc2cccc(NC(=O)C3CCN(C(=O)C4CC4)CC3)c2)cc1)C1CC1,x,-0.9%,x,-0.1,1.3%,x,35.3
C/C(=N\Nc1cccc2cccnc12)c1ccccn1,-9.3%,28.0%,1.8,1.1,-0.8%,-4.0,18.6
O=C(O)CCNS(=O)(=O)c1cccc2nsnc12,x,0.2%,x,-0.6,0.0%,20.0,-2.1
CC(C)OC(=O)c1ccc(COC(=O)CNC(=O)c2ccco2)cc1,12.5%,0.4%,-0.3,0.9,x,-13.4,18.6
COc1ccc(NC(=O)CN(C)C(=O)Cn2c(=O)oc3ccccc32)cc1,x,-1.7%,x,-0.6,-3.0%,2.5,-19.1
O=C(O)C(c1ccccc1)C(O)C1CCCC1 (configuration not stated),x,-4.3%,x,-0.3,-1.6%,x,-6.6
O=C(Nc1ccc(Br)cc1F)C1CCCO1 (configuration not stated),4.1%,0.0%,-1.2,1.1,6.0%,1.3,18.4
COc1ccc(C(=O)NC(NC(=S)Nc2ccc(S(N)(=O)=O)cc2)C(Cl)(Cl)Cl)cc1 (configuration not stated),13.2%,2.6%,0.7,1.7,-3.1%,-1.9,5.1
CCC(C)c1ccccc1NC(=O)COC(=O)c1ccc(C)c(NC(=O)c2ccco2)c1 (configuration not stated),12.9%,-1.7%,3.9,-1.0,1.6%,-13.1,-8.6
Cc1ccc(S(=O)(=O)N2[C@@H](c3ccc(Br)cc3)C(C(=O)O)=CC[C@H]2c2cccs2)cc1,x,-0.3%,x,-0.4,-2.9%,x,1.0
CCOC(=O)C1=CCC(c2cccs2)N(S(=O)(=O)c2ccc(C)cc2)C1 (configuration not stated),x,0.5%,x,0.6,-2.4%,x,x

Screening data as filed in PubChem BioAssay.
